VDR inh: Inhibitors of the vitamin D receptor (VDR): qHTS; AID 504847, 2011; Vitamin D3 receptor (Homo sapiens), P11473; 0.93% of 400,000 active; VDR-SRC2-3 peptide fluorescence polarization, 2 h; Potency, µM, without a hit: max response, negative = inhibition, usual class: inhibitors; active means well fitted inhibition curve with a large enough effect; inconclusive means small, poorly fitted or top-dose-only effect, or another doubt; inactive means no such curve, though single readings can be large or run the other way; further: series mostly up to about 120 µM
Target sequence (P11473 whole entry, looked up): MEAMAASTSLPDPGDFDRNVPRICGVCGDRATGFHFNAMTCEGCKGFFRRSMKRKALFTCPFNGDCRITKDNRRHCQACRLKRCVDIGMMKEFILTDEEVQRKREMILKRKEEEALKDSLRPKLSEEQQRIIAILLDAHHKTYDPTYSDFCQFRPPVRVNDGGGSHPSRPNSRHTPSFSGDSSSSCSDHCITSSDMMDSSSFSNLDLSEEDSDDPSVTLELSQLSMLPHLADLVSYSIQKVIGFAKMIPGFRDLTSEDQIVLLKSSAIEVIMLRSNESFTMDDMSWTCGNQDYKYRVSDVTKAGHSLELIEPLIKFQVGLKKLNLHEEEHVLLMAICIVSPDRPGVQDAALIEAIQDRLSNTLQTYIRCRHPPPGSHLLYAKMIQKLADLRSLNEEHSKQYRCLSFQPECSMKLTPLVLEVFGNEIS
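The screen uses fluorescence polarization to detect compounds that interfere with recruitment of the SRC2-3 coactivator peptide to VDR; plates are read after 2 h at room temperature.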
* hit, by the source's call; u = inconclusive. On the % scale 0 is the no-effect control and ±100 the full control effect; potency means the concentration at half of the fitted maximal effect. This is a subset; the hit share may differ from the screen's.

VDR inh	Molecule
-3.5%	COc1ccc(NC(=O)Cn2c(CCC(=O)O)ccc2-c2ccccc2)cc1
-24.9%	O=S(=O)(Nc1nnc(C2CCCCC2)s1)c1ccc(F)cc1
-14.4%	CC(C)=CCN1CCN(Cc2ccoc2)CC1CCO (configuration not stated)
7.6%	O=C(NCCCn1ccnc1)c1ccc(-c2cccc(Cl)c2Cl)o1
1.3%	CC(=O)[C@]1(O)CCC2C3CCC4=CC(=O)CC[C@@]4(C)C3CC[C@]21C (some centres not stated)
15.8µM*	Cc1cccc(CS(=O)(=O)c2ncc(Cl)c(C(=O)NCc3ccccc3)n2)c1
2.4%	Cc1[nH]c2ccc(F)cc2c(=O)c1SC(F)(F)C(F)C(F)(F)F (configuration not stated)
-9.5%	CCC(C)c1ccc(NC(=O)C2CC3CCC2C3)cc1 (configuration not stated)
2.8%	COc1ccc2[nH]c(C(=O)O)c(NS(=O)(=O)c3ccc(Cl)s3)c2c1
2.7%	Cc1cccc(-c2nnc(SCC(=O)N3CCCCC3)o2)c1
-17.1%	CC(C)C[C@H](NC(=O)c1nc[nH]c1C(=O)N1CCN(c2ccccc2)CC1)C(=O)OC(C)(C)C
-7.5%	CC(C)OC(=O)C1C2C=CC3(CN(CC4CCCO4)C(=O)C13)O2 (configuration not stated)
-6.0%	Cc1c(C)c2cc3c(c(C)c2oc1=O)OCN(CCc1ccc(F)cc1)C3
19.8%	CCc1ccc(NC(=O)Nc2c(C)n(C)n(-c3ccccc3)c2=O)cc1
16.5%	COc1ccc(S(=O)(=O)Nc2ccccc2C(=O)NCc2ccco2)cc1
-3.5%	CCOC(=O)N1CCN(Cc2nc3cc(NC(=O)c4ccco4)ccc3n2C)CC1
1.0%	O=S1(=O)CCC(N=Nc2c(O)n(Cc3ccccc3)c3ccccc23)C1 (configuration not stated)
u	CC(NC(=O)CSC(=S)N(C)C)C12CC3CC(CC(C3)C1)C2 (configuration not stated)
u	S=C(NCC1CCCO1)c1ccc(Br)cc1 (configuration not stated)
-7.6%	CC(=O)OC(C(=O)NC1CCCCC1)c1ccccc1Cl (configuration not stated)
4.0%	Cc1ccc(N(C)S(=O)(=O)c2ccc3[nH]cc(C(=O)NCCCN4CCOCC4)c(=O)c3c2)cc1C
6.9%	CC(C)N1C(=O)C(=O)N(CC(=O)N2CCc3ccccc32)C1=O
6.2%	Cc1ccc(S(=O)(=O)N2CCN(C(=O)CCC(=O)Nc3ccc(F)cc3F)CC2)cc1
2.0%	OCC(C#CCN1CCCCC1)NCc1ccccc1 (configuration not stated)
15.0%	O=C(Nc1ccc(Br)cc1)c1cc(-c2ccc3c(c2)OCO3)on1
-4.3%	O=c1cc(Nc2ccc3c(c2)OCO3)[nH]c(=O)n1-c1ccc(Br)cc1
-7.6%	Cc1noc(C)c1COc1ccc(C(=O)N2CCCC(C(N)=O)C2)cc1 (configuration not stated)
3.5%	COc1ccc(-c2cc(C(=O)NCCCN3CCCC3=O)c3ccccc3n2)cc1OC
6.1%	Cn1c(=O)c(CCc2ccccc2)nc2cnc(Nc3ccccc3)nc21
13.0%	CCOc1ccc(S(=O)(=O)/N=C(/Nc2ccc(C(C)=O)cc2)c2ccccc2)cc1

An excerpt from above in order of their number in VDR inh, rising:
Structure | VDR inh
OCC(C#CCN1CCCCC1)NCc1ccccc1 (configuration not stated) | 2.0%
COc1ccc(-c2cc(C(=O)NCCCN3CCCC3=O)c3ccccc3n2)cc1OC | 3.5%
O=C(Nc1ccc(Br)cc1)c1cc(-c2ccc3c(c2)OCO3)on1 | 15.0%

Further compounds follow.
VDR inh	Molecule
-12.0%	CC(Nc1ccccc1)c1cccnc1 (configuration not stated)
4.1%	COc1cccc(C(=O)/C=C/Nc2ccc(S(=O)(=O)Nc3cc(OC)nc(OC)n3)cc2)c1
-11.9%	COc1ccc(N2CCN(C(CNC(=O)C(=O)NC3CCCC3)c3ccco3)CC2)cc1 (configuration not stated)
31.6µM*	CN1C(=O)/C(=C/c2cccc([N+](=O)[O-])c2)C(=O)N1c1ccccc1
4.3%	COc1ccccc1N1CCN(C(=O)Cn2nc(C(F)(F)F)c3c2CCC3)CC1
-2.1%	COc1ccc(-c2nc3c4ccccc4[nH]c(=O)n3n2)cc1
-9.1%	COc1ccc(Nc2ncnc3onc(-c4ccc(Cl)cc4)c23)cc1Cl
12.8%	CC(=O)N(Cc1cccs1)C1CCOC(C)(C)C1 (configuration not stated)
10.3%	CCCN(CC(=O)Nc1ccccc1C)C(=O)/C=C/c1ccc(S(=O)(=O)N2CCCCCC2)cc1
-4.6%	CC1=C(C(=O)OCCOc2ccccc2)C(c2coc3ccccc3c2=O)C2=C(CCCC2=O)N1 (configuration not stated)
3.5%	COc1ccc(OC)c(Nc2ncnc3c2cnn3-c2cccc(C)c2)c1
u	CN(c1ccccc1)S(=O)(=O)c1ccc(NC(=O)C2CCCCC2C(=O)O)cc1 (configuration not stated)
-3.4%	CCCCN(Cc1ccccc1)S(=O)(=O)c1cc(Br)cc2c1N(C(=O)C1CC1)CC2
-9.6%	COc1ccc(NC(=O)N2CCC(n3nnc4cc(C)ccc43)CC2)cc1
-5.2%	Cc1cc(=O)oc2cc(OCC(=O)OCC(=O)N(C)C3CCS(=O)(=O)C3)ccc12 (configuration not stated)
-4.3%	Cc1nnsc1S(=O)c1ccc(Cl)cc1 (configuration not stated)
2.8%	Cc1ccc(C(=O)Nc2cc(C)c(OCC(=O)N3CCOCC3)c(C)c2)cc1
-7.2%	CCc1cccc2c(C(=S)N3CCCC3)c[nH]c12
-5.7%	CC(C)c1ccc(Nc2cnn(C34CC5CC(CC(CC(=O)O)(C5)C3)C4)c(=O)c2Cl)cc1
-7.8%	O=C(O)CC1(CC(=O)NCc2csc(-c3cccs3)n2)CCCCC1
-7.2%	CC(C)[C@H](NC(=O)NC1CCCc2ccccc21)C(=O)O (some centres not stated)
8.7%	CN(C(=O)COC(=O)c1c2c(nc3ccccc13)CCCC2)c1c(N)n(Cc2ccccc2)c(=O)[nH]c1=O
-6.3%	COC(=O)c1ccc(COC(=O)C2CCN(S(=O)(=O)c3ccccc3C(=O)OC)CC2)cc1
-9.4%	Nc1nc(SCc2ccc(Cl)cc2)ns1
-11.9%	CC1Cc2cc(-c3csc(NC(=O)CCl)n3)ccc2N1C(=O)C1CC1 (configuration not stated)
10.7%	CN(C)C(=O)NC(Nc1ccc(Cl)cc1Cl)C(Cl)(Cl)Cl (configuration not stated)
-9.1%	CC(=O)Nc1ccc(C(O)(C(F)(F)F)C(F)(F)F)cc1
5.0%	COc1ccc(CCn2c(=O)c3cccnc3n(CC(=O)Nc3cccc(C)c3)c2=O)cc1OC
8.3%	O=C(COC(=O)c1cc(=O)[nH]c2ccccc12)NCc1ccccc1Cl
4.0%	COc1ccc2[nH]cc(CCNS(=O)(=O)c3ccc(C)cc3)c2c1

Single entries from above:
Entry of COc1ccc(NC(=O)N2CCC(n3nnc4cc(C)ccc43)CC2)cc1 under VDR inh: -9.6%
Entry of COc1cccc(C(=O)/C=C/Nc2ccc(S(=O)(=O)Nc3cc(OC)nc(OC)n3)cc2)c1 under VDR inh: 4.1%
Entry of COc1ccc(Nc2ncnc3onc(-c4ccc(Cl)cc4)c23)cc1Cl under VDR inh: -9.1%
Entry of CC(=O)N(Cc1cccs1)C1CCOC(C)(C)C1 (configuration not stated) under VDR inh: 12.8%
Entry of CC(C)c1ccc(Nc2cnn(C34CC5CC(CC(CC(=O)O)(C5)C3)C4)c(=O)c2Cl)cc1 under VDR inh: -5.7%
Entry of COc1ccc(OC)c(Nc2ncnc3c2cnn3-c2cccc(C)c2)c1 under VDR inh: 3.5%

Following part.
VDR inh	Molecule
9.8%	COc1ccc(C2C=C(c3ccccc3)Nc3nc(NC(=O)/C=C/c4ccccc4Cl)nn32)cc1 (configuration not stated)
-29.2%	COC(=O)CSC1=C(C#N)C(c2ccc(F)cc2)CC(=O)N1 (configuration not stated)
-0.8%	Cc1nnc(N2C(=O)C(O)=C(C(=O)c3ccco3)C2c2cccc3ccccc23)s1 (configuration not stated)
14.6%	O=C1[C@@H]2CSCN2C(=O)CN1Cc1c(F)cccc1Cl
7.9%	CCOC(=O)CSc1nc2ccccc2c(=O)n1C1CCCC1
-23.4%	Cc1cccc(NC(=O)c2ccc(S(=O)(=O)C(F)F)cc2)c1C
-12.2%	CCOC(=O)CC(NS(=O)(=O)c1ccc2[nH]c(=O)sc2c1)c1ccc(C)cc1 (configuration not stated)
-25.9%	COc1cccc(NC(=O)CSc2ccc(-c3ccco3)nn2)c1
4.1%	COC(=O)[C@H](C)NC(=O)Nc1ccc(OC(F)(F)F)cc1
6.7%	CN(C)c1ccc(/C=N/NC(=O)c2sccc2-n2cccc2)cc1
4.1%	CCCCOC(=O)C(C#N)c1nc2ccccc2nc1N1CCOCC1 (configuration not stated)
-5.6%	CN(CC(=O)Nc1ccc(S(N)(=O)=O)cc1)Cc1ccccc1F
0.1%	O=c1[nH][nH]c(C(F)(F)F)c1C=Nc1cccc(Cl)c1
18.2%	COc1ccc(S(=O)(=O)c2nnn(-c3ccccc3Cl)c2N)cc1
13.7%	O=C(Nc1ccccc1)NC1CCCCCCC1
5.3%	CCn1c(=O)c2sccc2n2c(CCCC(=O)Nc3ccc(Oc4ccccc4)cc3)nnc12
-5.1%	Cc1cc(C)c(OCCN(C)Cc2ccccc2)c(Br)c1
-12.6%	COc1ccc(O)c(/C=N/NS(=O)(=O)c2ccc(C)cc2)c1
8.1%	Cc1ccccc1Cn1c2ccccc2c2cnn(CC(=O)NC(C)CCc3ccccc3)c(=O)c21 (configuration not stated)
-8.5%	O=C(N/N=C(\c1ccccc1)c1cccnc1)C(O)(c1ccccc1)c1ccccc1
6.5%	CN(NS(=O)(=O)c1ccc(F)cc1)c1ncc(C(F)(F)F)cc1Cl
-8.5%	Nc1cccc(S(=O)(=O)N2CCOCC2)c1
-8.8%	COCCN(C(=O)C1CCN(C(=O)c2ccccc2C)CC1)c1c(N)n(CC(C)C)c(=O)[nH]c1=O
6.9%	COC(=O)c1ccccc1NC(=O)CSc1nnc2cc(C)c3cc(C)cc(C)c3n12
-13.6%	CC(=O)NCCC(=O)N1CCc2c([nH]c3ccccc23)C1c1cccc(C)c1 (configuration not stated)
-7.0%	COc1ccc(-c2cc(C(=O)OC(C)C(=O)c3ccccc3)c3cccc(Cl)c3n2)cc1 (configuration not stated)
-20.9%	CCOC(=O)N1CCN(C(=S)NC(=O)c2cccc(OC)c2)CC1
-4.7%	COC(=O)c1ccc(-c2ccc(F)cc2)nc1C
5.9%	COc1ccc(C(=O)C(c2ccccc2)N2CCOCC2)cc1 (configuration not stated)
7.9%	C[C@@H](C(=O)OCn1nnc2ccccc2c1=O)N1C(=O)C2CCCCC2C1=O (some centres not stated)

Printed as active in VDR inh, among the entries above:
VDR inh	Molecule
15.8µM*	Cc1cccc(CS(=O)(=O)c2ncc(Cl)c(C(=O)NCc3ccccc3)n2)c1
31.6µM*	CN1C(=O)/C(=C/c2cccc([N+](=O)[O-])c2)C(=O)N1c1ccccc1

More results.
VDR inh	Molecule
-7.0%	Nc1ccc(-c2nc3ccc(N)cc3s2)cc1
1.4%	CCN(CC)C(=O)Nc1cnc2ccccc2c1
-7.8%	N[C@@H]1C(O)OC(CO)C(O)C1O (some centres not stated)
-10.2%	O=C(O)c1cccc2c1C(=O)c1cc([N+](=O)[O-])ccc1-2
8.5%	COc1ccccc1-c1ccc(SCC(=O)NC2CCCCC2)nn1
u	COc1ccc(CCNC(=O)CCCCn2c(=O)c3ccccc3n(CC(=O)Nc3ccc(C)cc3C)c2=O)cc1OC
11.5%	CN(CC(=O)NCc1ccc(Cl)cc1)S(=O)(=O)c1cccc2nsnc12
-7.5%	CC1(C)CC(=O)c2c(O)cc(OCC(=O)NCCc3ccc(S(N)(=O)=O)cc3)cc2O1
3.5%	CCOc1ccc(NC(=O)CN(C)C(=O)C2CC(=O)N(CCc3ccc(OC)c(OC)c3)C2)cc1OCC (configuration not stated)
3.8%	COc1ccc(NC(=S)N/N=C2\CC(C)(C)Oc3ccc(O)cc32)cc1
-2.9%	Cc1cc(C)n(-c2nnc3c4ccccc4n(C)c3n2)n1
u	CNc1ccc(Br)cc(C(=O)/C=C/c2ccc(OC)cc2OC)c1=O
-23.5%	Cc1ccc(-n2c(O)c(/C=C3/C(c4ccccc4)=Nc4ccccc43)c(=O)[nH]c2=O)cc1
-17.7%	S=C(NCc1ccccn1)Nc1ccc(Cl)c(Cl)c1
-13.2%	Cn1c(=O)c2c(ncn2CC(=O)N/N=C/c2ccco2)n(C)c1=O
16.7%	CCN(CC)CCN(C(=O)c1ccc2c(c1)OCCO2)c1nc2cc(C)cc(C)c2s1
-7.5%	CC(Oc1ccc(Br)cc1)C(=O)N(C)CC(=O)Nc1ccc(N2CCOCC2)cc1 (configuration not stated)
14.4%	Cc1ccccc1C(=O)NNC(=O)CSc1nc2ccccc2c(=O)[nH]1
-17.6%	O=C(O)COc1ccccc1/C=N/NC(=O)CSc1nc2ccccc2n1Cc1ccc(Cl)cc1
0.2%	COc1cccc(-c2nnc3n2N=C(C(C)(C)C)CS3)c1
-11.9%	Cc1cccc(-n2c(SCC(N)=O)nc3c(oc4ccccc43)c2=O)c1
-16.5%	O=C(COc1ccc2c(-c3ccccc3)cc(=O)oc2c1)NC(Cc1c[nH]c2ccccc12)C(=O)O (configuration not stated)
-4.0%	O=C(Nn1cnnc1)C1Cc2ccccc2CN1S(=O)(=O)c1ccc(F)cc1 (configuration not stated)
-10.4%	O=S(=O)(c1ccc(OC(F)(F)F)cc1)N1CCN(c2nc(-c3cccs3)nc3ccccc23)CC1
3.5%	COCCNC(=O)c1nn(-c2ccc(C)cc2)c(=O)n(C)c1=O

Retrieved one by one from the entries so far, 3 records:
VDR inh	Molecule
1.4%	CCN(CC)C(=O)Nc1cnc2ccccc2c1
-16.5%	O=C(COc1ccc2c(-c3ccccc3)cc(=O)oc2c1)NC(Cc1c[nH]c2ccccc12)C(=O)O (configuration not stated)
3.5%	COCCNC(=O)c1nn(-c2ccc(C)cc2)c(=O)n(C)c1=O
